# Screening results (PubChem BioAssay)
# TSHR ag: agonists of human thyroid stimulating hormone receptor; Potency, µM (top dose mostly 57.1 µM), for the others: top-dose activation, hits mostly activators; AID 926; hit rate 0.48% among 73,000; P16473; HEK293-CNG-TSHR cells (CNG channel as cAMP sensor), membrane potential dye, cAMP; active = well fitted activation curve of enough size with the parental cells flat; inconclusive = any curve in the parental cells; inactive = parental cells flat and receptor cells flat or falling; note: potency is the fitted concentration of half-maximal effect; % of control where 0% means no effect; weak receptor curves with flat parental cells got no call and are not listed
# Target sequence (P16473 whole entry, looked up): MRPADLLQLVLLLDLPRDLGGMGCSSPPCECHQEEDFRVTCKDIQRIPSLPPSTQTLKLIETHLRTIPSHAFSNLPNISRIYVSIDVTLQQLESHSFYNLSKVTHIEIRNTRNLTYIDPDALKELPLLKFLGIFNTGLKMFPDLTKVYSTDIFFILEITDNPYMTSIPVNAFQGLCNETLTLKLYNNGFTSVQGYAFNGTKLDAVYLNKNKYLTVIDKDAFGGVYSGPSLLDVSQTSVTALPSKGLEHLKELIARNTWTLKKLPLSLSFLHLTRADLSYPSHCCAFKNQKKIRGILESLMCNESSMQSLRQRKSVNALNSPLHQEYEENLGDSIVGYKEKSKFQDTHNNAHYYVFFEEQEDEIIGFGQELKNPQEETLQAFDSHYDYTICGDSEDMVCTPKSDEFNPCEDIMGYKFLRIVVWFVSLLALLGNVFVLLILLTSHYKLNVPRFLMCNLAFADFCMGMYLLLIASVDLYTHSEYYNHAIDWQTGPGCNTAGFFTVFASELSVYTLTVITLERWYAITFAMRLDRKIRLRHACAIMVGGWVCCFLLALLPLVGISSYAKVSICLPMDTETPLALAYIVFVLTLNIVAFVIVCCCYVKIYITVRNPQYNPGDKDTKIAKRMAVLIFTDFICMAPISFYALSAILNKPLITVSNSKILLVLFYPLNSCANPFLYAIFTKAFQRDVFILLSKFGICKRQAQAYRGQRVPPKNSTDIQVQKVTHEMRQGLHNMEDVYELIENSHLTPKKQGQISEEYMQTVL
#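 cAMP rise detected as CNG-channel membrane depolarization by fluorescent dye (emission 590 nm), 30 min after compound, following 60 min dye loading containing 100 uM RO 20-1724 at room temperature. Cells: TSHR/CNG HEK 293, with parental CNG HEK 293 as control.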
# AID923: qHTS Assay for Allosteric/Competitive Inhibitors of Caspase-1: Spectroscopic Profiling in AFC Spectral Region. hit rate 1.1% among 75,000. Potency, µM (top dose mostly 57.5 µM), for inactives: at the highest dose fluorescence increase, most hits filed as activators. compound fluorescence, AFC spectral region (405/520 nm); almost no hit is shown here; active = well fitted activation curve with a large enough effect; inconclusive = small, poorly fitted or top-dose-only effect;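 note: potency is the fitted concentration of half-maximal effect; 0% is about no effect; scaled to a free AFC standard on each plate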
#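 Titrations up to 57 uM read every 20 sec for 3 min (405/520 nm) with 50 nM caspase 1 and 5 uM Ac-WEHD-AFC, pH 7.5 HEPES buffer. Fluorescence-vs-time intercept gave baseline, scaled against on-plate AFC standard.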
# A647 fluor: A647 region autofluorescence | Compound fluorescence, A647 channel (570/671 nm), Tris buffer | max dye-equivalent concentration, M | 59,000 tested, under 10 active; active means above 1 µM dye equivalent; inconclusive means 0.1 to 1 µM; inactive means 0.1 µM or less;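 note: values scaled relative to a standard on each plate; highest value over a series up to 38 µM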
#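 Compounds pinned into 100 mM Tris pH 8.0, 15 min at room temperature, then read with 570 nm excitation/671 nm emission filters. Fluorescence normalized to an on-plate six-point Alexa 647 standard curve, giving dye-equivalent concentration per compound concentration.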
# Resorufin autofl: compounds fluorescent in resorufin spectral region | Compound fluorescence, resorufin region 547/598 nm, buffer; active compounds read high | max dye-equivalent concentration, M | hit rate 0.04% among 59,000 | AID 588; active = above 10 nM dye equivalent; inconclusive = 1 to 10 nM; inactive = 1 nM or less; a few of its hits are not listed in these tables; note: highest value over a series up to 38 µM
#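 Intrinsic fluorescence profiled in the resorufin window (ex 547 nm, em 598 nm) after 15 min at room temperature in pH 8.0 Tris buffer (100 mM); responses normalized against a six-point resorufin standard series as dye-equivalent concentration.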
# A488 autofl: compound autofluorescence in A488 spectral region | compound autofluorescence, A488 spectral region, dye equivalency; active compounds read high | max dye equivalency, M | AID 591 | hit rate 0.1% among 59,000; active = above 10 nM dye equivalent; inconclusive = 1 to 10 nM; inactive = 1 nM or less; about half of its hits are not listed in these tables;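 note: highest value over a series up to 38 µM; compound alone in buffer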
#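 Autofluorescence read at ex 480/em 540 nm after 15 min RT in 100 mM Tris pH 8.0; compound signal normalized to A488 standard series on each plate, reported as dye-equivalent concentration at each test concentration.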
# An asterisk follows results filed as active; i = inactive; ? = inconclusive; nt = no result given; & = joins results of further samples; [ ] = another dose, or the depositor's remark.
canonical_smiles | TSHR ag | AID923 | A647 fluor | Resorufin autofl | A488 autofl
CSCC[C@@H]1NC(=O)C/C=C\[C@@H](C)COC(=O)[C@@H](CCSC)NC(=O)C/C=C\[C@@H](C)COC1=O | -7.5%[11.4 µM] | 3.0%[11.5 µM] | nt | nt | nt
Cc1ccccc1CS(=O)(=O)Cc1ccc(C(=O)NCCCN2CCOCC2)o1 | -1.0%[11.4 µM] | -1.6% | 3.26e-08 | i | i
C=CCn1c(=O)c2c(nc3n2CCN3c2cccc(Cl)c2C)n(C)c1=O | -9.1% | 0.2% | 3.3e-08 | i | i
COc1ccc(/C(O)=C2/C(=O)C(=O)N(c3ncccn3)C2c2ccc(OC)c(OC)c2)cc1 (stereo not drawn) | nt | nt | 1e-09 | i | i
O=C(CSc1nnc2n(C3CCCC3)c(=O)c3ccccc3n12)N1CCCCCC1 | -4.1% | -0.4% | 1e-09 | i | i
COC(=O)c1n[nH]c2ccccc12 | nt | nt | 4.58e-08 | i | i
CSc1nc(NCc2ccco2)c2c3c(sc2n1)CN(C)CC3 | ? | -0.8% | 1e-09 | i | i
O=C(CCn1nnc2ccccc2c1=O)NCC1CCC(C(=O)O)CC1 (stereo not drawn) | 2.6% | 1.1% | 4.7e-09 | i | i
COc1cc(OC)nc(NC(=O)CSc2nc3ccccc3o2)n1 | 10.8% | 1.0% | 1.95e-08 | i | i
COc1ccccc1CNC(=O)C(C)NS(=O)(=O)c1ccc(C)cc1 (stereo not drawn) | -7.1% | -1.5% | 1e-09 | i | i
COc1ccc(-c2c3c(nc4sc(C(=O)Nc5cc(C)on5)c(N)c24)CCC3)cc1 | 0.7% | 12.4% | 3.04e-08 | i | i
CN(Cc1cc(C(C)(C)C)cc(Br)c1O)Cc1cc(C(C)(C)C)cc(Br)c1O | -1.8%[11.4 µM] | -2.6%[11.5 µM] | 5.3e-09 | i | i
CN1CCN(C(=O)c2cc3nc(-c4ccc(F)cc4)cc(C(F)(F)F)n3n2)CC1 | 5.8% | 14.8% | nt | nt | nt
COCCCn1c(SCC(=O)Nc2nnc(C)s2)nnc1-c1ccoc1C | 4.0% | -1.2% | 1e-09 | i | i
O=S(=O)(c1ccc2ccccc2c1)n1cnc2ccccc21 | ? | -3.3% | 2.46e-08 | i | i
CC/C(C)=C1\SC(N2CCN(C(C)=O)CC2)=NC1=O | nt | nt | 3.09e-08 | i | i
Cc1nc(SCC(=O)N2CCOCC2)c2ccsc2n1 | 0.7% | -0.2% | 1.31e-08 | i | i
COc1cccc(C2=Nn3c(nnc3-c3ccccc3O)SC2)c1 | ? | -1.2% | 5.9e-09 | i | i
c1ccc2cc(-c3cc(-c4cc(-c5ccc6ccccc6c5)on4)no3)ccc2c1 | 0.8%[11.4 µM] | -3.0%[11.5 µM] | 1e-09 | i | i
COc1ccccc1NC(=O)CSc1nnc(CNC(=O)COc2ccc(Cl)cc2)o1 | 4.6%[11.4 µM] | -0.6% | 1e-09 | i | i
CN1CCc2c(sc3c2c(=O)n(-c2ccccc2)c2nnc(SCc4ccc(Cl)cc4)n32)C1 | 3.3% | 1.7% | 1.28e-08 | i | i
Cc1noc(C)c1S(=O)(=O)N1CCCC(C(=O)NCCc2ccc(Cl)cc2)C1 (stereo not drawn) | ? | 2.0% | 1e-09 | i | i
Cc1cccc(C)c1OCc1nnc(SCC(=O)NCCc2ccccc2)o1 | ? | -0.2% | 1.3e-09 | i | i
O=C(NCc1nc(-c2ccccc2)no1)c1cccs1 | -3.0% | -2.0% | 8e-09 | i | i
Cc1cccc(C(C)C)c1NC(=O)c1cccnc1 | 6.9% | 1.8% | 2.5e-09 | i | i
COc1cc(OC)c(C2N(c3ccccn3)C(=O)C3CCCN32)cc1OC (stereo not drawn) | -1.6% | -1.2% | 1e-09 | i | i
COC(=O)c1ccccc1NC(=O)COC(=O)CSCC(=O)N1CCOCC1 | 4.8% | -0.3% | 3.63e-08 | i | i
O=C(NCc1nc(-c2ccccc2)no1)c1ccc2c(c1)OCO2 | nt | -1.3% | 2.42e-08 | i | i
O=C1NCCCc2c1oc1cc(Br)c(O)c(Br)c21 | 1.9% | 6.1% | 1e-09 | i | i
O=C(CSc1nnc(-c2cccs2)o1)N1CCOCC1 | 11.9% | -1.0% | 3.95e-08 | i | i
Cc1[nH]c(=O)[nH]c(=O)c1NS(=O)(=O)c1ccc2c(c1)CCCC2 | -3.7% | -1.0% | 1e-09 | i | i
COc1ccc2[nH]c3c(c2c1)CN(C)CC3 | 26.3% | 0.2% | 2.89e-08 | i | i
CCc1ccccc1NC(=O)CSC1=C(C#N)C(c2ccc(O)c(OC)c2)C2=C(CCCC2=O)N1 (stereo not drawn) | nt | nt | 1e-09 | i | i
CC(=O)Nc1ccc(S(=O)(=O)Nc2ncccn2)cc1 | 8.9% | 3.8% | nt | nt | nt
CCN(CC)C(=O)C1CCCN(C/C=C/c2ccccc2)C1 (stereo not drawn) | 11.6% | -0.8% | nt | nt | nt
COCCN1CC(O)=C(c2nc3ccccc3c(=O)[nH]2)C1=N | 1.4% | 0.6% | 2.81e-08 | i | i
CCNC(=O)COC(=O)COc1ccc(Cl)cc1C | 2.8% | 0.7% | 1e-09 | i | i
O=[N+]([O-])c1cccc2cn[nH]c12 | 5.1%&3.1% | -2.9% | 2.8e-09&3.7e-08 | i | i
CCOC(=O)c1c(C)oc2ccc(OCC(N)=O)cc12 | 3.0% | 1.0% | 3.34e-08 | i | i
NS(=O)(=O)c1ccc(N=Nc2c(O)c(C(=O)O)cc3ccccc23)cc1 | -3.2%[11.4 µM] | 1.7%[11.5 µM] | 5.29e-08 | i | i
O=C(c1cc2cc(Br)ccc2oc1=O)N1CCN(c2ccccn2)CC1 | 18.3% | -1.6% | 1e-09 | i | i
O=C(O)c1ccccc1-c1ccccc1C(=O)c1ccccc1 | 3.5%[11.4 µM] | -0.3%[11.5 µM] | 1e-09 | i | i
Nc1nnc(CCc2ccccc2)s1 | -3.2% | -2.2% | nt | nt | nt
COc1cccc(OC)c1C(=O)N1CCN(c2c(Cc3ccccc3)c(C)nc3ncnn23)CC1 | nt | 0.3% | 1e-09 | i | i
CC(=NCCc1ccccc1)C1=C(O)CSC1=O | -3.7% | 1.7% | nt | nt | nt
Cc1cnc(C(=O)OCC(=O)N2c3ccccc3NC(=O)C2(C)C)cn1 | 1.1% | -1.5% | 4.8e-09 | i | i
Nc1nc(=S)c2ncn([C@H]3O[C@@H](CO)[C@@H](O)[C@@H]3O)c2[nH]1 | -15.1%[25.6 µM] | -2.6%[25.7 µM] | 2.6e-09 | i | i
O=C1CC(N(Cc2ccc3c(c2)OCO3)C(=O)Nc2ccc(F)cc2)C(=O)N1c1ccccc1 (stereo not drawn) | 8.7% | 0.8% | 1e-09 | i | i
Cc1cc(C)nc(SCC(=O)Oc2ccc3oc(=O)cc(C)c3c2)n1 | 3.5%[11.4 µM] | 1.5% | nt | nt | nt
O=C(O)c1ccc(CN2CCCCC2)o1 | -5.7% | 0.9% | 1e-09 | i | i
OC1(c2ccccc2F)CCN(Cc2nnnn2CCc2ccccc2)CC1 | 1.3% | -2.1% | 2.24e-08 | i | i
Cc1cc(C)c2c(CN3CCN(Cc4ccc5c(c4)OCO5)CC3)cc(=O)oc2c1C | -10.4% | 0.2% | 2.3e-09 | i | i
CSc1nc(C)cc(OCNC(=O)c2cccs2)n1 | -8.9% | 0.6% | 2.3e-09 | i | i
COCc1[nH]nc2c1C(C1C=CCCC1)C(C#N)=C(N)O2 (stereo not drawn) | 13.8% | -2.2% | 1e-09 | i | i
COC(=O)c1ccc(C(NC(=O)OCc2ccccc2)/C(=C/[C@@H](C)C(=O)NCc2ccncc2)c2cccnc2)cc1 (stereo partly drawn) | 7.1% | -0.7% | nt | nt | nt
COc1cc(Cl)c(S(=O)(=O)n2cnc(C)c2)cc1Cl | 13.5%[11.4 µM] | 2.7% | nt | nt | nt
Cc1ccc(OCC(=O)N2CCN(C(=O)c3cccs3)CC2)cc1 | -2.1% | -0.4% | 1e-09 | i | i
CCCC(=O)N1CCN(S(=O)(=O)c2cc(Cl)ccc2OC)CC1 | 4.4% | 2.0% | 4.9e-09 | i | i
CCOC(=O)c1oc2ccc(Br)cc2c1CSc1nnc(C)s1 | ? | 0.2% | 1.02e-08 | i | i
CC1CCCCC1NC(=O)CSc1nncs1 (stereo not drawn) | -0.6% | -3.5% | 1.78e-08 | i | i

# Going on with the list.
canonical_smiles | TSHR ag | AID923 | A647 fluor | Resorufin autofl | A488 autofl
Cn1c(SCC(=O)Nc2ccc3c(c2)OCCO3)nnc1-c1ccco1 | 0.6% | -1.4% | 4.8e-09 | i | i
CC(C)Cn1cc(C(=O)N2CCOCC2)c2c3ccccc3n(C)c2c1=O | 1.1% | -0.3% | 4.4e-09 | i | i
O=C(CSc1ncnc2c1nnn2Cc1ccccc1F)N1CCN(c2ccccc2)CC1 | ? | 4.8% | nt | nt | nt
COc1ccc(Cc2nnc(SCC(=O)NCc3ccco3)o2)cc1 | 13.3% | 0.7% | 3.9e-09 | i | i
C/C(=C\CNc1ncnc2c1ncn2[C@@H]1O[C@@H](CO)[C@@H](O)[C@H]1O)CO | 1.2% | nt | 1e-09 | i | i
CC(=O)c1ccc(-n2nnnc2SCC(=O)N2CCN(C(=O)c3ccco3)CC2)cc1 | 3.7% | 0.2% | 1e-09 | i | i
COCCNc1cc(-c2ccccc2C)ncn1 | 6.8% | 0.3% | 1e-09 | i | i
CCN(CC)c1nc(-c2cccc(OC)c2O)nc2ccccc12 | nt | nt | 1e-09 | i | i
CCOC(=O)N1CCC(NC(=O)c2ccc3nc(N4CCOCC4)sc3c2)CC1 | -3.0% | 0.9% | 3.2e-09 | i | i
CCOC(=O)c1cc(-c2ccccc2)n(CC(=O)O)c1C | nt | -0.7% | 1e-09 | i | i
O=C(CN1CCN(S(=O)(=O)c2ccc(F)cc2)CC1)Nc1ccc2c(c1)OCO2 | 1.7% | -1.2% | 3.25e-08 | i | i
CCOc1ccc(Cc2nnc(SCC(=O)c3ccc(OC)cc3)o2)cc1 | ? | 0.7% | 1e-09 | i | i
Cc1noc(NS(=O)(=O)c2ccc(NC(=O)CCn3c(=O)oc4ccccc43)cc2)c1C | 0.4% | 1.1% | nt | nt | nt
Cc1c(C(=O)O)nnn1-c1ccccc1 | -2.3% | -1.9% | 1.4e-09 | i | i
CC1CN(C2CCN(C(=O)c3ccccc3)CC2)CC(C)O1 (stereo not drawn) | nt | nt | 1e-09 | i | i
O=C(COc1ccccc1)Nc1ncc2c(n1)CCCC2=O | 0.6% | -1.2% | 1e-09 | i | i
COc1ccc(C(CC(=O)O)NC(=O)c2ccco2)cc1OC (stereo not drawn) | -2.1% | -0.3% | 1.74e-08 | i | i
O=C(Nc1c(C(=O)Nc2ccc3c(c2)OCCO3)cnn1-c1ccccc1Cl)c1ccco1 | -0.9% | -2.8% | 3.9e-09 | i | i
COc1cccc(C(=O)Nc2nnc(C(C)C)s2)c1 | -2.5% | -0.2% | 4.7e-09 | i | i
O=C(O)[C@H](/C=C\c1ccccc1)c1ccccc1 | -0.9%[11.4 µM] | -4.1%[11.5 µM] | 1e-09 | i | i
Cc1ccc(Cn2c(SCCN3CCOCC3)nc3c2c(=O)n(C)c(=O)n3C)cc1 | 9.0% | -2.3% | 1.71e-08 | i | i
COC(=O)N1CCC2(CCCN(Cc3ccccc3)C2)CC1 | -0.1% | -1.4% | 1e-09 | i | i
CC(C)(C)OC(=O)[C@H]([C@@H]1N[C@@H](C(=O)O)C(C)(C)S1)N1C(=O)c2ccccc2C1=O | 4.3%[11.4 µM] | -1.4%[11.5 µM] | 1e-09 | i | i
Cc1ccc(S(=O)(=O)N2CCN(C(=O)CN3C(=O)NC4(CCOc5ccccc54)C3=O)CC2)cc1 (stereo not drawn) | -0.3% | -1.0% | 1.6e-08 | i | i
CN(C)CCn1c(C(=O)Nc2ccccc2)cc2ccccc21 | ? | 1.0% | 1e-09 | i | i

# These rows are one share of the data (hit frequency here may not be typical).
